Bioassay records (PubChem)
LASV entry inh: inhibitors of Lassa virus binding or cell entry. Lassa virus pseudotype entry inhibition, cell reporter; control for the full effect not named in the record. Potency, µM (highest dose often 37.9 µM), for the others: at the highest dose activity change, negative = inhibition, most hits filed as inhibitors. AID 540256. 1.2% of 300,000 active; active means well fitted inhibition curve with a large enough effect; inconclusive means small, poorly fitted or top-dose-only effect, or effect the other way; inactive means flat fitted curve, though single readings scatter; tested in HEK293 cells; further: on the % scale 0 is the no-effect control and ±100 the full control effect; nearly all actives have a fitted effect of over 50% in size; luciferase read-out
RE007 growth inh: less growth of the S. pombe RE007 Vpr strain; S. pombe RE007 Vpr strain, BacTiter-Glo ATP luminescence, 24 h; control for the full effect not named in the record; Potency, µM (titrated, usually from 92.2 µM), inactives show top-dose activity change, negative = less growth; 0.21% of 360,000 active; AID 651644; active = well fitted falling curve with a large enough effect; inconclusive = small, poorly fitted or top-dose-only effect; inactive = no such curve, though single readings can be large or run the other way;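 further: on the % scale 0 is the no-effect control and ±100 the full control effect; nearly all actives have a fitted effect of over 50% in size; the assay follows cell death caused by Vpr and the record does not say whether a fall means rescue or toxicity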
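Fission yeast strain RE007, carrying one chromosomally integrated HIV-1 vpr copy, was seeded at OD 0.01 in PMG+AL medium with 23 nL pinned compound. After 24 h at 30 °C and 99% humidity, viability was read by BacTiter-Glo luminescence.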
Cruzain noTriton: cruzain (T. cruzi) inhibition without detergent; purified cruzain, Z-FR-AMC fluorescence, no detergent; AID 1476; 2.3% of 200,000 active; Potency, µM, without a hit: max response, negative = inhibition, usual class: inhibitors;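 further: plate controls were enzyme without inhibitor for no effect and buffer without enzyme for full effect; nearly all actives have a fitted effect of over 40% in size; top concentration of the series not given in the record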
Target sequence (P25779 123-467 limits assumed): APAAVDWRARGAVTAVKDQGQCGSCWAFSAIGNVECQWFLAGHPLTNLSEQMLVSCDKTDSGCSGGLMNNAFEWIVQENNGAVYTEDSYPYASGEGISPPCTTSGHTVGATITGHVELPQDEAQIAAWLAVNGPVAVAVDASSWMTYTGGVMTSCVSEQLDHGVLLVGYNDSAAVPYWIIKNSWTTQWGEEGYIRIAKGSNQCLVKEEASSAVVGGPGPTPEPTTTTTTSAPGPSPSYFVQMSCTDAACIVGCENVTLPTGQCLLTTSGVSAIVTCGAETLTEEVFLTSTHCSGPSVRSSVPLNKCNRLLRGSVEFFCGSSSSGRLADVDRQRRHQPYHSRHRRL
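Purified cruzain at 1.5 nM, pre-incubated 15 min with compound at room temperature in 100 mM sodium acetate pH 5.5, 5 mM DTT, 0.00005% Triton X-100. Reaction started with 2 uM Z-FR-AMC; AMC fluorescence increase over 60 s gives rate.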
MARV entry inh: blocks Marburg virus binding to or entry into cells; Marburg virus pseudotyped entry inhibition, cell reporter; control for the full effect not named in the record; about a third of the inactives were read at about 46 µM; Potency, µM (doses to about 37.8 µM), for the others: at the top dose activity change, negative = inhibition, hits mostly inhibitors; 1.8% of 300,000 active; active = well fitted inhibition curve with a large enough effect; inconclusive = small, poorly fitted or top-dose-only effect, or effect the other way; inactive = flat fitted curve, though single readings scatter; tested in HEK293 cells; about a fifth of its hits are not listed in these tables; further: on the % scale 0 is the no-effect control and ±100 the full control effect; luciferase read-out
NS1 inh: inhibitors of influenza NS1 protein function. S. cerevisiae slowed by influenza A NS1, growth recovery by OD600. 0.4% of 270,000 active. Potency, µM (titrated, usually from 46.1 µM), for inactives: at the top dose activity, positive = more growth; active means well fitted rising curve with a large enough effect; inconclusive means small, poorly fitted or top-dose-only effect; inactive means no such curve, though single readings can be large or run the other way; further: nearly all actives have a fitted effect of over 50% in size
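OD600 was taken as the measure of yeast growth restored by compound in an NS1-expressing S. cerevisiae strain. Cells had been washed out of glucose medium and diluted 1:100 into galactose -URA medium, pH 6.0.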
Cruzain Triton: inhibitors of Trypanosoma cruzi cruzain with detergent; P25779; purified cruzain, Z-FR-AMC fluorescence, 0.01% Triton; Potency, µM, for the others: max response, negative = inhibition, actives largely listed as inhibitors; 0.43% of 200,000 active;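 further: plate controls were neutral wells for no effect and buffer without enzyme for full effect; nearly all actives have a fitted effect of over 40% in size; top concentration of the series not given in the record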
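Z-FR-AMC hydrolysis (2 uM substrate) by cruzain (1.5 nM) monitored kinetically at ex 360/em 450 nm after 15 min room-temperature compound exposure; 0.01% Triton X-100, pH 5.5, 5 mM DTT.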
SARS PLpro yeast: inhibitors of SARS-CoV papain-like protease in yeast. S. cerevisiae expressing SARS-CoV PLpro, growth rescue; control for the full effect not named in the record. Potency, µM (top dose mostly 32.9 µM), for the others: at the highest dose activity, positive = growth rescue. 0.19% of 330,000 active. AID 485353; active means well fitted rising curve with a large enough effect; inconclusive means small, poorly fitted or top-dose-only effect; inactive means no such curve, though single readings can be large or run the other way; further: 0% is about no effect; nearly all actives have a fitted effect of over 55% in size; growth read by luminescence after 48 h
2A StopGo: lowers the luciferase signal of an FMDV 2A StopGo reporter | AID 1159524 | human cells with a luciferase reporter of 2A StopGo recoding; control for the full effect not named in the record | 1.2% of 410,000 active | Potency, µM (highest dose often 57.9 µM), for inactives: top-dose signal change, negative = less light; active = well fitted falling curve with a large enough effect; inconclusive = small, poorly fitted or top-dose-only effect; inactive = no such curve, though single readings can be large or run the other way; tested in HEK293T cells; further: on the % scale 0 is the no-effect control and ±100 the full control effect; nearly all actives have a fitted effect of over 45% in size; luciferase light after 4 h
The depositor's hits bear a star; ? = inconclusive; nt = not tested or not shown; [ ] = another dose, or the depositor's remark. Unless noted, the call rests on the fitted dose curve; in most records, active means well fitted curve in the direction sought with a large enough effect; inconclusive means small, poorly fitted or top-dose-only effect, or another doubt; inactive means no such curve, though single readings can be large; an effect the other way counts as inactive or inconclusive. Potency means the concentration at half of the fitted maximal effect.

SMILES	LASV entry inh	RE007 growth inh	Cruzain noTriton	MARV entry inh	NS1 inh	Cruzain Triton	SARS PLpro yeast	2A StopGo
CCc1ccccc1N(C)C(=O)c1cc2c(s1)-c1c(C)cccc1OC2	nt	nt	-4%	-2%[46.1 µM]	nt	-12%	nt	-11%
O=C(NCCN1CCOCC1)c1ccc(F)cc1	-14%	8%	-16%	12%	4%	-2.2%	6%	28%
CCS(=O)(=O)NCCc1cc2ccc(C)cc2[nH]c1=O	7%	3%	-3%	-10%	-6%	13%	-7%	-1%
COc1cc([N+](=O)[O-])ccc1NC(=S)NNC(=O)CCC(=O)Nc1ccccc1Cl	-29%[46.1 µM]	2%	nt	-16%[46.1 µM]	-15%	nt	-2%	-20%
O=C(CCC(=O)Nc1cccc(Cl)c1)N/N=C/c1cc([N+](=O)[O-])ccc1O	?	2%	nt	?	nt	nt	-1%	-10%
N#C/C(=C\c1c(Cl)cccc1Cl)c1nc2ccccc2[nH]1	?	-19%	nt	?	-88%	nt	-7%	-18%
Cc1nnc(NC(=O)CSc2nccn2Cc2ccc(Cl)cc2)s1	1%[46.1 µM]	nt	-13%	nt	nt	-0.8%	nt	-1%
Cn1c(C(=O)OC(C(=O)NCC2CCCO2)c2cccnc2)cc2sccc21 (stereo not given)	nt	-2%	nt	nt	-3%	nt	1%	-5%
O=C(N/N=C/c1ccc([N+](=O)[O-])o1)c1cc(-c2ccc(-c3ccccc3)cc2)nc2ccccc12	?	2%	nt	?	?	nt	-5%	?
Cc1cccc[n+]1CCCCCCCCCC[n+]1ccccc1C	?	-11%	nt	?	0%	nt	-2%	-7%
CNC(=S)N1CCc2sccc2C1C (stereo not given)	0%	-3%	nt	15%	2%	nt	1%	0%
O=C(c1ccncc1)N1CCN(S(=O)(=O)c2ccccc2F)CC1	6%	15%	nt	6%	nt	nt	0%	-9%
CCc1ccc2oc(=O)cc(CN3CCCCC3C)c2c1 (stereo not given)	-19%	1%	5%	?	6%	-0.8%	-5%	-13%
COc1cc2c(=O)n(Cc3ccccc3Cl)c(=O)n(CC(=O)Nc3ccccc3)c2cc1OC	9%[46.1 µM]	nt	0%	?	nt	-1.4%	nt	-3%
Cc1ccn2c(Nc3ccc4c(c3)OCO4)c(-c3ccc(Cl)cc3)nc2c1	?	nt	7%	7%[46.1 µM]	nt	-5.5%	nt	-13%
CCOc1ccc(/C=N/Nc2nc(C)cs2)c(O)c1	nt	2%	nt	nt	-9%	nt	1%	-3%
Cc1cn2c(=O)cc(COC(=O)c3ccc(NC(=O)C(C)Oc4ccccc4)cc3)nc2s1 (stereo not given)	?	nt	1%	nt	nt	1.6%	nt	-7%
Cc1cccc(-c2nnnn2-c2cccc(C)c2)c1	?	-5%	nt	20%[46.1 µM]	nt	nt	-1%	-11%
O=C(CCC(=O)CCN1CCCCC1)CCN1CCCCC1	?	?	-11%	?	9%	-0.3%	nt	11%
CCOC(=O)C1=C(C)N(C)C(C)=C(C(=O)OCC)C1c1ccncc1	3%	25%	0%	0%	-14%	2.1%	-1%	15%
N#CCSc1nnc(C2CCCCC2)n1Cc1ccccc1	?	5%	5%	-5%	-1%	2.0%	6%	17%
O=[N+]([O-])c1ccc(NNS(=O)(=O)c2cc(Cl)ccc2Cl)nc1	nt	-1%	nt	nt	-14%	nt	-1%	29%
CN(c1ccccc1C(=O)Nc1ccc(F)c(Cl)c1)S(C)(=O)=O	12%	-2%	nt	13%[46.1 µM]	1%	nt	0%	18%
COc1ccc(Nc2nc(NCC3CCCO3)c3ccccc3n2)c(OC)c1 (stereo not given)	-26%	-19%	nt	?	-6%	nt	0%	?
CC[C@@H](C)C(N)c1cn([C@@H](CCC(=O)O)C(=O)N2CCNCC2)nn1 (stereo not given in full)	nt	-2%	nt	nt	4%	nt	1%	4%
Cc1sc2nc(CN3CCCCC3)nc(N3CCN(C(=O)c4ccco4)CC3)c2c1C	16%[46.1 µM]	-14%	nt	?	nt	nt	-2%	-3%
COc1ccc(-c2nnn(CC(=O)N3CCN(c4ccc(F)cc4)CC3)n2)cc1	nt	0%	nt	nt	4%	nt	-6%	-8%
COc1ccc(Nc2nc(Nc3ccc(OC)cc3OC)nc(N3CCN(C)CC3)n2)c(OC)c1	?	-9%	-4%	?	12%	-4.5%	-8%	?
O=P(OCC(F)(F)C(F)F)(N1CCCCC1)N1CCCCC1	15%	-4%	24%	20%	10%	-6.7%	-8%	19%
NC(=O)c1ccc(NC(=O)COC(=O)c2cccc(Oc3ccccc3)c2)cc1	3%	-5%	16µM*	2%	13%	0.7%	0%	-10%

One compound at a time, as listed above. Order of screens: LASV entry inh	RE007 growth inh	Cruzain noTriton	MARV entry inh	NS1 inh	Cruzain Triton	SARS PLpro yeast	2A StopGo
Cc1sc2nc(CN3CCCCC3)nc(N3CCN(C(=O)c4ccco4)CC3)c2c1C is listed with 16%[46.1 µM]	-14%	nt	?	nt	nt	-2%	-3%
CC[C@@H](C)C(N)c1cn([C@@H](CCC(=O)O)C(=O)N2CCNCC2)nn1 (stereo not given in full) is listed with nt	-2%	nt	nt	4%	nt	1%	4%

(list continues)
SMILES	LASV entry inh	RE007 growth inh	Cruzain noTriton	MARV entry inh	NS1 inh	Cruzain Triton	SARS PLpro yeast	2A StopGo
O=C(C1CC(c2ccc(F)cc2)=NO1)N1CCN(Cc2ccccc2)CC1 (stereo not given)	nt	-13%	-4%	nt	-5%	-2.4%	-3%	?
Fc1ccc(NC(=S)Nc2ccc(Cl)cc2Cl)cc1	-15%	-9%	nt	-23%[46.1 µM]	-6%	nt	1%	25%
Cc1nnc(-c2ccc(Cl)cc2)[nH]c1=O	-8%[46.1 µM]	11%	nt	21%[46.1 µM]	0%	nt	-2%	17%
COc1cc2nc(SCC(=O)Nc3cccc(C)c3)n3nc(-c4ccccc4)nc3c2cc1OC	7%[46.1 µM]	nt	-3%	-27%[46.1 µM]	nt	-1.1%	nt	-5%
O=C1NC(=O)/C(=C/c2cccc([N+](=O)[O-])c2)N1	nt	-2%	nt	nt	11%	nt	0%	4%
O=C(Nc1cccnc1)C1CC(c2ccccc2O)=NO1 (stereo not given)	16%	7%	1%	-1%	-1%	-0.8%	6%	nt
COc1ccccc1N1CCN(CC(O)COc2ccc(C)cc2C)CC1 (stereo not given)	?	-19%	nt	?	-5%	nt	-1%	-16%
Cc1ccc(S(=O)(=O)N(Cc2cccc(F)c2)C(=O)N2CCN(C)CC2)cc1	-2%	-2%	nt	1%	nt	nt	?	0%
COC(=O)CSc1nnc(-c2sc3cc(OC)ccc3c2Cl)n1C	1%	0%	4%	26%	-32%	2.1%	-13%	-23%
CCCCCCOc1ccc(N2C(=O)CC(NCc3ccc(S(N)(=O)=O)cc3)C2=O)cc1 (stereo not given)	nt	-8%	nt	nt	4%	nt	-1%	-25%
COc1ccc(Cl)cc1-n1cc(-c2ccccc2)nc1SCC(=O)Nc1ccc(C)cc1	-14%[46.1 µM]	nt	?	nt	nt	0.9%	nt	-1%
COc1ccc(C(=O)CC(=O)C(=O)Nc2ccccc2OC)cc1	nt	-7%	nt	nt	-45%	nt	8%	-8%
O=C(CNS(=O)(=O)c1ccc(Br)s1)N1CCN(C(=O)c2ccco2)CC1	4%	-7%	1%	13%	-9%	1.5%	1%	2%
Cc1ccc(-c2cc(C(=O)N3CCN(c4ccccc4O)CC3)c3ccccc3n2)o1	?	4%	nt	?	-58%	nt	-12%	20%
CSc1ccc(S(=O)(=O)Nc2ccc(S(=O)(=O)Nc3ccc(C)cc3)cc2)cc1	21%	8%	?	?	?	-6.6%	4%	23%
Cc1cccc(NCc2cc(Cl)cc(Cl)c2O)n1	16%	-21%	1%	-2%	-24%	-11%	-64%	nt
Nc1ncc([N+](=O)[O-])s1	nt	-3%	-5%	nt	nt	-0.7%	-10%	-16%
CN(C)c1ccc(NC(=O)c2sc(SCC(=O)Nc3ccc(Br)cc3)nc2N)cc1	19%	6%	10µM*	-8%[46.1 µM]	22%	5.7%	0%	2%
CC1CCCCN1C(=O)CSc1nc(-c2ccccc2)no1 (stereo not given)	-13%[46.1 µM]	nt	-12%	nt	nt	-3.9%	nt	51%[activator]
NC(=O)CSc1nnc(CNc2ccc(F)cc2)n1CC1CCCO1 (stereo not given)	-6%	11%	-13%	-4%	0%	2.8%	17%	-6%
Cc1ccc(NC(=O)c2cccn(Cc3ccccc3C)c2=O)c(C)c1	-2%[46.1 µM]	nt	-4%	nt	nt	0.7%	nt	?
COc1ccc(NC(=O)Cc2nn(C)c(=O)c3ccccc23)c2ncccc12	nt	nt	-4%	nt	4%	0.1%	-3%	nt

Reformatted in markdown: part of the list above.
| mol | LASV entry inh | RE007 growth inh | Cruzain noTriton | MARV entry inh | NS1 inh | Cruzain Triton | SARS PLpro yeast | 2A StopGo |
| --- | --- | --- | --- | --- | --- | --- | --- | --- |
| Cc1cccc(NCc2cc(Cl)cc(Cl)c2O)n1 | 16% | -21% | 1% | -2% | -24% | -11% | -64% | nt |
| Nc1ncc([N+](=O)[O-])s1 | nt | -3% | -5% | nt | nt | -0.7% | -10% | -16% |
| CN(C)c1ccc(NC(=O)c2sc(SCC(=O)Nc3ccc(Br)cc3)nc2N)cc1 | 19% | 6% | 10µM* | -8%[46.1 µM] | 22% | 5.7% | 0% | 2% |
| CC1CCCCN1C(=O)CSc1nc(-c2ccccc2)no1 (stereo not given) | -13%[46.1 µM] | nt | -12% | nt | nt | -3.9% | nt | 51%[activator] |
| NC(=O)CSc1nnc(CNc2ccc(F)cc2)n1CC1CCCO1 (stereo not given) | -6% | 11% | -13% | -4% | 0% | 2.8% | 17% | -6% |

Rows are unselected; overall some 4.8% were active at least once.
